# GALR2 agonist: GALR2 receptor agonists, primary screen, cell-based. GALR2-expressing cells, agonist activation read-out. activation, %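 (tested at 5 µM)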. actives 0.48% (n = 140,000);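 active = above mean plus 3 SD of all compounds, about 5% in these data, not always enough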;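 also: 0% = vehicle buffer wells and 100% = reference agonist at full effect; tested in CHO reporter cells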
# Target sequence (O43603 whole entry, looked up): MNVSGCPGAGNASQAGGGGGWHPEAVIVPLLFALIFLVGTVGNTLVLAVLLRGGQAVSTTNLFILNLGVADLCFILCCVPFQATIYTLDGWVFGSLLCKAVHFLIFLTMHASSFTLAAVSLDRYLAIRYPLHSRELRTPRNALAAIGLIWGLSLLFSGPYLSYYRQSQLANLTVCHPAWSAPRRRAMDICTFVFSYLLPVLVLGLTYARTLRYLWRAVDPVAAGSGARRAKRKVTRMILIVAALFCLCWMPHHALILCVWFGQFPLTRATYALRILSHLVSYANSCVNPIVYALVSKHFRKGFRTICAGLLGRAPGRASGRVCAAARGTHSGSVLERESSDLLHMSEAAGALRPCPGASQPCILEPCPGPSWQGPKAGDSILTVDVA
# PKD1 kinase inh: inhibitors of human PKD1 kinase, biochemical, fluorescence polarization | PKD1 kinase fluorescence polarization assay | inhibition, %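 (about 10 µM by stock and volumes)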 | actives 0.056% (n = 200,000) | AID 797, 2007;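 active = inhibition of 50% or more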;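 also: controls were vehicle for no effect and a reference inhibitor for full effect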
# RGS16-Gao HTS: modulators of RGS16 binding to Galphao, primary screen, biochemical, human proteins, multiplexed bead flow cytometry | Regulator of G-protein signaling 16 (Homo sapiens) + Guanine nucleotide-binding protein … | bead-based flow cytometry RGS16-Galphao binding, fluorescence; actives lie on both sides | binding response (% of control), % at 10 µM | actives 0.38% (n = 220,000) | AID 1441, 2008;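 active = below 25% or above 175%, edge rows of some plates excepted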;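 also: Galphao activated by GDP with aluminum fluoride before binding; 100% = wells without compound and 0% = beads without RGS; some results beyond the cut were filed as inactive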
# Target sequence (O15492 whole entry, looked up): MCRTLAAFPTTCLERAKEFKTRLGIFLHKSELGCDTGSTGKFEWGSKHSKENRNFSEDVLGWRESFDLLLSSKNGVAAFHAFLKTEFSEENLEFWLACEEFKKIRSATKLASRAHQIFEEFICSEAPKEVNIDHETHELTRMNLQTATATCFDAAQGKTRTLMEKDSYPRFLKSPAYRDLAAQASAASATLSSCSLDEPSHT
# Target sequence (P09471 whole entry, looked up): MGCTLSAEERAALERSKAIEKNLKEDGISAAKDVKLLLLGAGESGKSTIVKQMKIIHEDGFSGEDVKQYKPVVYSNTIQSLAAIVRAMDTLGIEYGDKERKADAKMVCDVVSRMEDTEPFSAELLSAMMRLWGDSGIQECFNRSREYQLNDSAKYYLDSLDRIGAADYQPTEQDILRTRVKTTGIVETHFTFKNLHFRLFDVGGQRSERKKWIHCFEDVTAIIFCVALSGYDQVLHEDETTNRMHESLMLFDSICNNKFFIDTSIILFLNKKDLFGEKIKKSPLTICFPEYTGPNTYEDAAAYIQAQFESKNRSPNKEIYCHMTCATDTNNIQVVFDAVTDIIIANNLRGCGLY
# Insulin prom inh: inhibitors of insulin promoter-driven GFP, primary screen, imaging, TRM-6 cells (human fetal islet line), eGFP reporter, cell count; reporter expression induced with tamoxifen; inhibition, % at 2 µM; actives 0.9% (n = 130,000);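 active = inhibition above the mean plus 3 SD, with well images judged a real hit on visual review, cut at about 60% in these data, passing the limit was not always enough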
# HSV replic up: enhancers of HSV replication in host cells, fold increase, host cell viability; AID 1956, 2009; actives 0.005% (n = 220,000); HSV replication augmentation in cells; maximum fold increase;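 active = peak rise of 1.5-fold or more in the series; tested in PC3 cells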;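 also: first round at 10 µM; read as green reporter fluorescence; hits show the peak of a series up to 25 µM; 1 = signal of infected wells without compound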
# Insulin prom inh cell count: further read-out of Insulin prom inh, marked with its call; normalized cell count, %; measured here: cell count, toxicity; reference of the scale not given here;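 cells exposed to compound for 48 h; stained nuclei by imaging scaled within each plate; lower means fewer cells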
# HSV replic up primary fold: also measured in HSV replic up; calls as there; fold increase; compound at 10 µM; measured here: primary screen fold increase 10 uM; tested in PC3 cells;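 GFP signal in the first replicate; 1 = infected wells without compound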
# * hit, by the source's call; i = inactive; x = no result given; & = joins results of further samples. Rows are unselected; any-hit rate near 1.3%.
SMILES,GALR2 agonist,PKD1 kinase inh,RGS16-Gao HTS,Insulin prom inh,Insulin prom inh cell count,HSV replic up,HSV replic up primary fold
CC(C)C(c1nnnn1Cc1cccs1)N1CCN(C2CCCC2)CC1 (stereo not drawn),-0.5,3,100,20,63,i,1
Cc1cc(C)n(C2=NS(=O)(=O)c3ccccc32)n1,-1.0,-5,100,-18,195,i,1
O=C(NC(c1ccccc1)c1ccccc1)N1CCOCC1,x,-4,104,x,x,i,0.94
CCOC(=O)N1CCc2c(sc(NC(=O)CN3CCOCC3)c2C(=O)Nc2ccccc2)C1,x,6,97,x,x,i,0.98
COc1cc(NC(=O)COC(=O)c2ccc(S(=O)(=O)N3CC(C)CC(C)C3)cc2)c(C)cc1[N+](=O)[O-] (stereo not drawn),0.0,-8,104,14,82,i,0.97
O=C(NC1CCCCC1)N1CCN(c2nc(-c3ccccc3)cs2)CC1,x,14,106,-67,106,i,0.97
O=C(NC(=S)Nc1cc(C(F)(F)F)ccc1N1CCOCC1)c1ccco1,x,x,104,x,x,i,1
Cc1ccc(=O)n(C(C(=O)NCc2ccco2)C(=O)c2ccc(F)cc2)c1 (stereo not drawn),-2.5,-6,105,-3,67,i,0.89
CNC(C)c1cc(OC)ccc1OC (stereo not drawn),-0.7,-2,99,3,154,i,1
O=c1c2ccccc2nc(SCc2ccc([N+](=O)[O-])cc2)n1-c1ccccc1,-2.0,-9,98,-37,134,i,0.95
CN(C)S(=O)(=O)c1ccc(NC(=O)CSc2nnnn2C)cc1,x,x,105,x,x,i,1
CCOC(=O)C1CCN(C(=O)C23CC4CC(CC(C4)C2)C3)CC1,-2.4,4,124,-26,27,i,0.94
COc1cccc(CN2CCNC(=O)C2CC(=O)N(C)CCc2ccccn2)c1OC (stereo not drawn),x,-7,98,x,x,i,1
Cc1ccccc1Cn1cc(NC(=O)CCCn2nc([N+](=O)[O-])cc2C)cn1,x,2,104,x,x,i,0.95
O=C(c1cccc2ccccc12)N1CCN(c2ccc([N+](=O)[O-])c(N3CCOCC3)c2)CC1,-1.3,5,97,x,x,i,1
O=C1CC(NC(=O)C(F)(F)F)c2cc3c(cc21)OCO3 (stereo not drawn),x,-2,113,-64,133,i,0.98
CC(=O)Nc1ccc(/C=C/c2ccc3c([N+](=O)[O-])cccc3n2)cc1,x,3,98,x,x,i,1.1
CCC1CCCCN1C(=O)COc1ccccc1NC(C)=O (stereo not drawn),x,-6,100,x,x,i,1
C/C(CC(=O)N(C(C)C)C(C)C)=N\NC(=O)COc1ccc(Br)cc1Br,-2.5,-2,114,20,147,i,0.83
COC(=O)CCN(C(=O)c1cc([N+](=O)[O-])cc([N+](=O)[O-])c1)c1ccccn1,x,-3,93,0,130,i,0.95
O=C(CCCOc1ccc(Cl)cc1)N1CCCCC1,-0.8,-2,100,14,98,i,0.86
O=C(O)c1ccccc1/C=N/N1CCN(C2c3ccccc3-c3ccccc32)CC1,x,-5,105,x,x,i,1.1
CC1(C)Cc2nc(N)c(=O)sc2C1,-1.6,-18,104,x,x,i,1.1
CCC(C)NC(=O)c1ccccc1NC(=O)C(C)N(c1ccccc1)S(C)(=O)=O (stereo not drawn),-0.8,-11,98,-71,92,i,1
CC(C)Nc1nc(NC(C)C)nc(Oc2ccc(OCc3ccccc3)nn2)n1,-0.3,0,101,15,34,i,0.89
O=C(CN1CCN(Cc2ccccc2Cl)C1=O)NCc1ccco1,-3.1,-3,103,0,112,i,0.92
CCCCN(CCCC)c1ncnc2nc[nH]c12,x,-3,123,36,82,i,0.88
CC1(C)Cc2nc(Cl)c(C#N)cc2CO1,x,3,100,x,x,i,1.1
CC1CCC(C(C)C)C(OC(=O)Cn2c(-c3ccc(Br)cc3)[n+](C)c3ccccc32)C1 (stereo not drawn),x,-1&-1,100&101,0,75,i,0.64&0.68
CCOC(=O)C1CCN(C(=O)COc2cc(C)c(Br)cc2C)CC1,0.2,-2,95,38,107,i,0.92
CC(OC(=O)c1ccccc1O)C(=O)Nc1ccc(Cl)cn1 (stereo not drawn),x,3,104,-95,90,i,0.99
CCN(CC)c1ccc(CN(C(=O)c2ccco2)C2CCS(=O)(=O)C2)cc1 (stereo not drawn),-1.3,0,97,42,66,x,x
COc1cc2c(cc1OC)C(C(=O)N1CCCCC1)C(c1ccccc1F)N(C)C2=O (stereo not drawn),-1.1,6,92,x,x,i,1.1
CC(NC(=O)c1cc(-c2cccs2)on1)c1ccccc1 (stereo not drawn),-2.8,5,106,45,89,i,0.93
Cc1ccc(CC2C(=O)N(CC(=O)O)C(=O)C2C)cc1 (stereo not drawn),-0.7,3,99,-4,146,i,0.93
O=C(CCNc1n[nH]c(=O)[nH]c1=O)N1CCCCC1,-4.3,-3,96,42,119,i,0.97
Cc1ccc(Cn2nc(C)c(NC(=O)c3noc4c3CCCCC4)c2C)cc1,-1.9,-15,102,-227,38,i,0.89
O=C(CCS(=O)(=O)c1ccccc1)Nc1ccc2c(c1)OCO2,x,6,104,-27,112,i,0.97
CC(C)C(C(=O)NC(C)(C)C)N1C(=O)c2ccccc2C1=O (stereo not drawn),-1.9,-2,107,-37,75,i,0.98
COc1ccccc1C(=O)OCc1c(F)cccc1Cl,-1.2,5,110,-11,111,i,1
O=C(Nc1ccc2c(c1)CCC2)C1CCCN(c2ncccn2)C1 (stereo not drawn),0.5,-8,99,14,95,i,0.95
CCCc1nc2oc3c(=O)[nH]cnc3c2c2c1CCCC2,-0.5,2,102,-57,92,i,0.84
CC(C)(C)NC(=O)c1ccc2c(c1)C1C3CCC(C3)C1C(c1ccccc1)N2 (stereo not drawn),0.1,0,100,-97,127,i,0.97
O=C(NNc1ccccc1C(F)(F)F)c1sccc1Br,x,x,100,x,x,i,1.1
COc1ccc(C(c2sc3nc(C)nn3c2O)N2CCc3ccccc3C2)cc1 (stereo not drawn),-0.6,-6,112,-20,114,i,0.85
O=C(CCn1nnc(-c2cccs2)n1)N1CCc2ccccc2C1,-1.6,-2,98,x,x,i,0.93
CCc1nnc(N2C(=N)SCC2=O)s1,x,-5,99,x,x,i,1
CCCc1nc2ccccc2c(=O)n1NC(=O)c1c(O)c2cccc3c2n(c1=O)CCC3,-0.3,0,96,-39,105,i,1

# A draw from above in order of length of the SMILES, descending.
SMILES,GALR2 agonist,PKD1 kinase inh,RGS16-Gao HTS,Insulin prom inh,Insulin prom inh cell count,HSV replic up,HSV replic up primary fold
CC(=O)Nc1ccc(/C=C/c2ccc3c([N+](=O)[O-])cccc3n2)cc1,x,3,98,x,x,i,1.1
CC(C)Nc1nc(NC(C)C)nc(Oc2ccc(OCc3ccccc3)nn2)n1,-0.3,0,101,15,34,i,0.89
CC(OC(=O)c1ccccc1O)C(=O)Nc1ccc(Cl)cn1 (stereo not drawn),x,3,104,-95,90,i,0.99

# Some of these compounds in order of molar mass, ascending.
SMILES,GALR2 agonist,PKD1 kinase inh,RGS16-Gao HTS,Insulin prom inh,Insulin prom inh cell count,HSV replic up,HSV replic up primary fold
CC1(C)Cc2nc(Cl)c(C#N)cc2CO1,x,3,100,x,x,i,1.1
CCc1nnc(N2C(=N)SCC2=O)s1,x,-5,99,x,x,i,1
CCCCN(CCCC)c1ncnc2nc[nH]c12,x,-3,123,36,82,i,0.88
O=C(CCNc1n[nH]c(=O)[nH]c1=O)N1CCCCC1,-4.3,-3,96,42,119,i,0.97
Cc1ccc(CC2C(=O)N(CC(=O)O)C(=O)C2C)cc1 (stereo not drawn),-0.7,3,99,-4,146,i,0.93
COc1ccccc1C(=O)OCc1c(F)cccc1Cl,-1.2,5,110,-11,111,i,1
CC(NC(=O)c1cc(-c2cccs2)on1)c1ccccc1 (stereo not drawn),-2.8,5,106,45,89,i,0.93
CC(C)C(C(=O)NC(C)(C)C)N1C(=O)c2ccccc2C1=O (stereo not drawn),-1.9,-2,107,-37,75,i,0.98
CC(OC(=O)c1ccccc1O)C(=O)Nc1ccc(Cl)cn1 (stereo not drawn),x,3,104,-95,90,i,0.99
O=C(Nc1ccc2c(c1)CCC2)C1CCCN(c2ncccn2)C1 (stereo not drawn),0.5,-8,99,14,95,i,0.95
O=C(CCS(=O)(=O)c1ccccc1)Nc1ccc2c(c1)OCO2,x,6,104,-27,112,i,0.97
O=C(CCn1nnc(-c2cccs2)n1)N1CCc2ccccc2C1,-1.6,-2,98,x,x,i,0.93
O=C(CN1CCN(Cc2ccccc2Cl)C1=O)NCc1ccco1,-3.1,-3,103,0,112,i,0.92
O=C(NNc1ccccc1C(F)(F)F)c1sccc1Br,x,x,100,x,x,i,1.1
CC(C)(C)NC(=O)c1ccc2c(c1)C1C3CCC(C3)C1C(c1ccccc1)N2 (stereo not drawn),0.1,0,100,-97,127,i,0.97
CCN(CC)c1ccc(CN(C(=O)c2ccco2)C2CCS(=O)(=O)C2)cc1 (stereo not drawn),-1.3,0,97,42,66,x,x
CCOC(=O)C1CCN(C(=O)COc2cc(C)c(Br)cc2C)CC1,0.2,-2,95,38,107,i,0.92
COc1ccc(C(c2sc3nc(C)nn3c2O)N2CCc3ccccc3C2)cc1 (stereo not drawn),-0.6,-6,112,-20,114,i,0.85
COc1cc2c(cc1OC)C(C(=O)N1CCCCC1)C(c1ccccc1F)N(C)C2=O (stereo not drawn),-1.1,6,92,x,x,i,1.1
CCCc1nc2ccccc2c(=O)n1NC(=O)c1c(O)c2cccc3c2n(c1=O)CCC3,-0.3,0,96,-39,105,i,1
CC1CCC(C(C)C)C(OC(=O)Cn2c(-c3ccc(Br)cc3)[n+](C)c3ccccc32)C1 (stereo not drawn),x,-1&-1,100&101,0,75,i,0.64&0.68

# Further structures follow.
SMILES,GALR2 agonist,PKD1 kinase inh,RGS16-Gao HTS,Insulin prom inh,Insulin prom inh cell count,HSV replic up,HSV replic up primary fold
O=C(NN(C(=O)C1CC1)c1nc2ccccc2s1)C1CC1,-1.9,13,102,0,92,i,0.93
COc1ncccc1-c1nnn(-c2ccc(F)cc2)n1,x,-1,98,x,x,i,0.96
COc1ccc(N2CCN(C(=O)C(=O)c3c(C)n(C)c4ccccc34)CC2)cc1,x,-2,104,54,113,i,0.91
O=C(CN1C(=O)S/C(=C/c2cccnc2)C1=O)N1CCOCC1,-0.1,-3,91,71*,71*,i,0.98
C=CCn1c(C)cc(C)c(C#N)c1=O,-2.8,4,102,0,56,i,0.72
N#Cc1c(-c2ccco2)ccn(Cc2ccc(F)cc2)c1=O,x,-5,89,-45,103,i,0.95
COc1ccc(/C=C2\SC(=S)N(N3CCOCC3)C2=O)c(OC)c1,x,x,88,x,x,i,0.95
CN(C)C(=O)c1ccc(N/C=C(\C=O)c2nc3ccccc3o2)cc1,x,4,112,x,x,i,0.97
CCOC(=O)COc1cc(-n2c(=S)[nH]c3ccccc3c2=O)c(Cl)cc1Cl,x,-2,36,-82,50,i,1
Cn1c(N2CCN(C(=O)Nc3ccc(F)cc3)CC2)nc2ccccc21,-0.9,-4,x,-144,101,i,0.95
Cc1nc2cc(N3CCCCC3)c(NC(=O)c3ccncc3)cc2c(=O)n1Cc1ccccc1,1.0,-6,102,24,80,i,0.74
O=C(c1ccccc1)c1cnc[nH]1,x,x,101,x,x,i,0.86
CCNc1nc(NCC)n2c(SCC(=O)Nc3ccc(C(F)(F)F)cc3[N+](=O)[O-])nnc2n1,0.0,-9,122,-6,49,i,1
O=C(c1ccc(Cn2cc([N+](=O)[O-])cn2)o1)N1N=C(C(F)F)CC1(O)C(F)F (stereo not drawn),-1.7,-2,94,7,83,i,1
O=C(Cc1cccs1)Nc1ccccc1C(=O)O,-1.5,-4,93,18,62,i,0.97
O=C(c1ccc(Br)s1)N1CCN(C/C=C/c2ccccc2)CC1,-2.3,-4,100,28,70,i,1.1
C=CCn1c(SCc2c(C)noc2C)nc2cc(C(=O)O)ccc2c1=O,0.8,1,99,56,60,i,0.71
O=C(c1cnn2c(C(F)(F)F)cc(-c3cccs3)nc12)N1CCOCC1,x,-4,95,x,x,i,0.95
